# Assay outcomes from PubChem.
# HPGD inh – qHTS Assay for Inhibitors of HPGD (15-Hydroxyprostaglandin Dehydrogenase); 150,000 tested, 4.3% active; purified HPGD, NADH fluorescence kinetic, PGE2 substrate; Potency, µM, inactives show at the top dose activity change, negative = inhibition, most hits filed as inhibitors; active = well fitted inhibition curve with a large enough effect (not every such curve was filed as active); inconclusive = small, poorly fitted or top-dose-only effect, or another doubt; inactive = no such curve, though single readings can be large or run the other way;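 also: top concentration of the series not given in the record; plate controls included wells without enzyme; inactives centre near -10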
# Target sequence (P15428 whole entry, looked up): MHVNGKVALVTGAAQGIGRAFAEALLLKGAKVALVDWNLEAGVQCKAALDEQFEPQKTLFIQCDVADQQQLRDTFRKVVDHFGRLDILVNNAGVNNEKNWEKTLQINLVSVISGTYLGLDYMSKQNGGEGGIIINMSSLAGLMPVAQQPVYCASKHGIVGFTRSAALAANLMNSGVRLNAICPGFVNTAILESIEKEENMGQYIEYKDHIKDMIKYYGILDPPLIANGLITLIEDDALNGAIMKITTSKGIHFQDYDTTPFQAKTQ
#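 NADH formation kinetics: reaction with 30 uM PGE2 and 1 mM NAD+ (final), 20 nM enzyme, Tris-HCl pH 8 with Tween 20, after 15 min compound preincubation at room temperature. Fluorescence change, last versus first of five reads.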
# Numbers without * were called inactive; ? = inconclusive; & = joins results of further samples. % is scaled to controls: 0 for no effect and ±100 for the full control effect; potency is read from the fitted curve at half-maximal effect.
HPGD inh | compound
-13.4% | COc1ccc(-n2nc3cc(C)c(NC(=S)NC(=O)c4ccccc4C)cc3n2)cc1
-6.3% | CCn1c(SCC(=O)n2nc(C)cc2C)nnc1-c1ccc2c(c1)OCO2
-20.4% | Cc1ccc(NC(=S)NCc2ccc3c(c2)OCO3)cc1
-12.7% | C=CCc1ccc(OCCOCCOc2cccc3cccnc23)c(OC)c1
-8.6% | O=C(CSCc1c(Cl)cccc1Cl)Nc1ccccc1C(=O)N1CCOCC1
-2.4% | COc1ccccc1NC(=O)N1CCn2c(nc3ccccc32)C1
? | N#C/C(=C/c1cccc(C(F)(F)F)c1)c1nc(CCN2C(=O)c3ccccc3C2=O)cs1
-13.4% | N=C1C(c2ccccc2)=C(O)CN1c1ccc2c(c1)OCO2
? | COCCn1c(N)c(C(=O)OCc2ccccc2)c2nc3ccccc3nc21
-3.5% | COc1ccc(NC(=O)CC(c2ccc(F)cc2)c2ccc(OC(C)C)cc2)cc1 (configuration not stated)
-21.8% | CN(CC(=O)O/N=C(\N)c1cccc([N+](=O)[O-])c1)S(=O)(=O)c1ccccc1
-15.7% | CCc1cc(OCCCSc2nc(C)cc(=O)[nH]2)ccc1Cl
? | CCCCOCP(=O)(CCCC)COCCCC
1.7% | O=C(CN1C(=O)c2ccccc2S1(=O)=O)NCCSC1CCCCC1
-2.8% | CC1CC2C(C(O)C[C@]3(C)C2CC[C@]3(O)C(=O)CO)[C@]2(C)C=CC(=O)C=C12 (some centres not stated)
-15.7% | CCS(=O)(=O)N1CCN(c2ccc([N+](=O)[O-])c(NCc3ccccc3)c2)CC1
-16.7% | COC(=O)[C@H](Cc1ccccc1)NC(=O)[C@]1(C)C[C@H]1[C@H](NC(=O)OCc1ccccc1)c1ccccc1
-3.2% | O=S(=O)(NCc1ccco1)c1ccc(Cl)nc1
-4.0% | Cc1cc2cc(CCNC(=O)c3cccc([N+](=O)[O-])c3)c(=O)[nH]c2cc1C
15.8µM* | O=Nc1ccc2oc(=O)ccc2c1
-17.8% | O=C(NCc1ccco1)c1noc2c1CCCC2
-3.3% | CC(=O)N1CCc2cc(S(=O)(=O)CCC(=O)NCc3cccs3)ccc21
-4.7% | COc1ccc(-n2c(=O)cnc3cnc(Oc4ccccc4)nc32)cc1
-16.7% | Cc1ccc(C(=O)Oc2ccc(-c3nccc(-c4ccccn4)n3)cc2)cc1
-5.3% | COc1cc(C(=O)Oc2ccccc2)ccc1OCc1c(C)noc1C
? | COc1ccc(-c2nc(C#N)c(N3CCC(C(N)=O)CC3)o2)cc1OC
? | Cc1cc(=O)oc2cc(OCC(=O)NCCCN3CCOCC3)ccc12
-8.2% | COc1ccc(S(=O)(=O)N2CCC(C(=O)Nc3cccc(C(C)=O)c3)CC2)cc1
1.0% | Cc1ccccc1C(OCCN(C(C)C)C(C)C)c1ccccc1 (configuration not stated)
-2.7%&-6.3% | N[C@@H](Cc1ccc(O)c(I)c1)C(=O)O
-15.7% | Cn1c(=O)[nH]c(=O)c2c1nc(Br)n2CC(O)COc1ccccc1 (configuration not stated)
-1.4% | CCCCOc1ccccc1C1NC(=O)NC(C)=C1C(=O)OCCOC (configuration not stated)
-7.8% | CCS(=O)(=O)N1Cc2ccccc2CC1C(=O)N1CCN(c2ccccc2)CC1 (configuration not stated)
-5.7% | COc1ccc(Br)cc1CNC(=O)CCCc1cn(C)c2ccccc12
? | COc1cc(/C=C2\SC(=Nc3ccccc3)N(CCc3c[nH]c4ccccc34)C2=O)ccc1OC(C)C(=O)O (configuration not stated)
? | COc1cccc2[nH]c3c(N4CCCC(C)C4)ncnc3c12 (configuration not stated)
-4.1% | O=C(O)/C=C\C(=O)Nc1ccccc1F
-13.0% | Cc1c2c(nc3nc4ccccc4n13)CCCC2=O
-4.7% | Cc1csc(SCCN2C(=O)c3ccccc3C2=O)n1
3.55µM* | CCOc1ccc2c(c1)c1nnc(SCC(=O)N3CCC(C)CC3)nc1n2C
0.2% | CS(=O)(=O)N1CCC2(CCN(C(=O)Nc3cccc(F)c3)CC2)CC1
-5.3% | Cc1nc(COC(=O)c2ccc(CO)cc2)cs1
-2.6% | CCOC(=O)c1cnn(-c2nc(OC)cc(OC)n2)c1C(F)(F)F
28.2µM* | Cc1cc(C)cc(OCc2nnc(SCC(=O)c3ccccc3)o2)c1
3.98µM* | O=C(CSc1c[nH]c2ccccc12)NCC1CCCO1 (configuration not stated)
-7.1% | CCc1ccc(NC(=O)c2ccc(F)c(S(=O)(=O)N(CC)c3ccccc3)c2)cc1
-11.6% | CCCCN1C(=O)c2ccc(C(=O)Nc3ccc(S(=O)(=O)N(C)C)cc3)cc2C1=O
-3.0% | Cc1cccc(N=C2N=C(N)c3ccccc32)c1
-22.1% | C=CCNc1nc(-c2sc(NC(=O)CC)nc2C)cs1
? | CCOc1ccc2nc(Nc3nc4ccc(NC(C)=O)cc4s3)sc2c1

# Shown as labelled records: entries from further up
SMILES: COc1ccccc1NC(=O)N1CCn2c(nc3ccccc32)C1
  HPGD inh: -2.4%

SMILES: N#C/C(=C/c1cccc(C(F)(F)F)c1)c1nc(CCN2C(=O)c3ccccc3C2=O)cs1
  HPGD inh: ?

SMILES: N=C1C(c2ccccc2)=C(O)CN1c1ccc2c(c1)OCO2
  HPGD inh: -13.4%

SMILES: COCCn1c(N)c(C(=O)OCc2ccccc2)c2nc3ccccc3nc21
  HPGD inh: ?

# New compounds follow.
HPGD inh | compound
-19.5% | Cc1nc(S(=O)(=O)N(C)c2ccccc2)c(C#N)c(C)c1Cl
-5.0% | COc1cc2c(cc1OC)C(c1cccnc1)CC(=O)N2 (configuration not stated)
-12.0% | CC(C)(C)c1ccc(OCCC(=O)NC2=NCCS2)cc1
? | O=C1CCCC2=C1C(c1cccs1)Nc1ccc3ncccc3c12 (configuration not stated)
-6.6% | COC(=O)c1cccc(C23CC4(C2)[C@H](CN(C)[C@@H]4c2ccccc2)C3c2ccc(Cl)nc2)c1 (some centres not stated)
8.91µM* | COc1cc(OC)c(C2CC(=O)N3CN(c4ccccc4C)CSC3=C2C#N)cc1OC (configuration not stated)
-27.5% | Cc1ccccc1-c1nc(S(=O)(=O)c2ccc(Cl)cc2)c(NCCN2CCOCC2)o1
? | CCOC(=O)c1cc(-c2ccco2)nc2c1c(C)nn2-c1cccc(Cl)c1
-8.7% | N#Cc1ccsc1NC(=O)CN1CCN(S(=O)(=O)c2ccccc2C(F)(F)F)CC1
-19.2% | COc1cc(C2C(C#N)=C(N)Oc3cc(C)n(CCN4CCOCC4)c(=O)c32)cc(OC)c1OC (configuration not stated)
-6.2% | O=C(Nc1c(Cl)cc(Cl)cc1C(=O)NCC1CCCO1)c1ccco1 (configuration not stated)
? | COc1ccc(-n2nc(C(=O)NCc3ccco3)c3ccccc3c2=O)cc1
-9.7% | Cc1cccc(/C=N/NC(=O)CN2CCCCCCC2)c1
-23.0% | NC(=O)c1c(NC(=O)C2c3ccccc3Oc3ccccc32)sc2c1CCCCC2
? | COc1cc2c(cc1NC(=O)COC(=O)[C@@H](NC(=O)c1ccccc1F)C(C)C)oc1ccccc12
-3.6% | C=C(C)Cn1c(N(CCO)Cc2ccccc2)nc2c1c(=O)[nH]c(=O)n2C
-7.1% | CCC(C)OC(=O)c1cc(C)nc2c(Br)cc(Br)cc12 (configuration not stated)
5.62µM* | COc1cc(/C=N/n2c(C)n[nH]c2=S)ccc1OCc1ccccc1
-10.8% | O=C(NCCCN1CCN(Cc2ccccc2Cl)CC1)Nc1ccccc1
-10.0% | O=C(CCc1nc2ccccc2s1)OCC(=O)N1CCN(C(=O)c2ccco2)CC1
-12.0% | O=C(OCCN=C1NS(=O)(=O)c2ccccc21)c1ccccc1
-9.0% | Cc1cccc2cc(CN(CCN(C)C)C(=S)NCc3ccco3)c(=O)[nH]c12
-3.9% | O=C(Nc1ccc([N+](=O)[O-])cc1)/C(=C/c1cccc([N+](=O)[O-])c1)NC(=O)C1CCCCC1
? | N#CCCn1cc(C(=O)Nc2ccccc2Br)c(-c2cc3ccccc3o2)n1
? | COc1ccc(C2=Nn3c(nnc3-c3cccnc3)SC2)cc1OC

# Some of these compounds in order of their number in HPGD inh, descending.
HPGD inh | compound
-10.0% | O=C(CCc1nc2ccccc2s1)OCC(=O)N1CCN(C(=O)c2ccco2)CC1
-10.8% | O=C(NCCCN1CCN(Cc2ccccc2Cl)CC1)Nc1ccccc1
-12.0% | CC(C)(C)c1ccc(OCCC(=O)NC2=NCCS2)cc1
-23.0% | NC(=O)c1c(NC(=O)C2c3ccccc3Oc3ccccc32)sc2c1CCCCC2

# More records follow:
HPGD inh | compound
15.8µM* | CC(C)CNC(=O)C1CCN(c2ccc(S(=O)(=O)N3CCOCC3)cc2Cl)CC1
-17.1% | Cc1ccc2nc(C3CCN(S(=O)(=O)c4ccc5ccccc5c4)CC3)[nH]c2c1
-7.2% | Nc1nc(SCc2nc(-c3ccccc3)no2)[nH]c(=O)c1-c1ccccc1
-11.1% | COc1cc(/C=N/NC(=O)c2ccc([N+](=O)[O-])cc2Cl)cc(Br)c1O
-16.0% | Oc1ccc(N=C/C=C/c2ccc(Br)cc2)cc1-c1nc2ccccc2s1
? | O=C(CSc1nc(-c2ccco2)cc(C(F)(F)F)n1)N1CCN(Cc2ccccc2)CC1
-7.7% | Cc1cc(C)c(NC(=S)NC(=O)c2ccc(-c3ccccc3)cc2)c(C)c1
-3.1% | Cn1c(Cn2c(=O)sc3ccccc32)nnc1SCC(=O)NC1CCCC1
-3.3% | COC(=O)C1=C(C)n2nnnc2NC1c1ccc(Cl)cc1 (configuration not stated)
1.9% | CCOc1cc(C(=O)N2CCN=C2SC)cc(OCC)c1OCC
-12.3% | COc1ccc(-c2c/c(=N\c3nc(-c4ccccc4)c(C)s3)c3ccccc3o2)cc1O
-10.6% | CCc1ccc(C2CC(c3ccc(F)cc3)Nc3nc(N)nn32)cc1 (configuration not stated)
-26.3% | CC(C)(C)OC(=O)N1CCC(c2cc(=O)n3[nH]cc(C(=O)NC4CCCC4)c3n2)CC1
? | COc1cc(OC)cc(-c2nc3ccccc3s2)c1
-14.3% | CCOC(=O)C1CCN(S(=O)(=O)c2cc(Br)cc3c2N(C(=O)C2CC2)CC3)CC1
-15.7% | O=C(CCCc1ccccc1)NCc1cn2ccsc2n1
-9.4% | CCC1CN2CCC1CC2[C@@H](NC(=S)Nc1cc(C(F)(F)F)cc(C(F)(F)F)c1)c1cccc2ccc(OC)cc12 (some centres not stated)
-9.1% | Cc1ccc(NCc2nnc(SCC(=O)Nc3ncc(C)s3)n2Cc2ccco2)c(C)c1
-3.8% | Cc1ccc(C)c(S(=O)(=O)n2cnc3ccccc32)c1
-1.7% | CCOC(=O)c1cnc(-c2ccccc2)nc1Oc1ccc(Cl)cc1
-5.6% | CC1(C)CC(=O)C(C=NCCN2CCN(C(=S)NC3CCCCC3)CC2)=C(O)C1
1.8% | Cc1ccc(NC2=NC(C(=O)Nc3ccc(C)c(C)c3)CC(=O)N2)cc1 (configuration not stated)
-23.3% | Nc1nc(N2CCN(C/C=C/c3ccccc3)CC2)nc2ccccc12
-12.0% | COCCN(C(=O)Cn1nnc2ccccc21)C(C(=O)NC1CCCC1)c1cc(OC)ccc1OC (configuration not stated)
-18.7% | CCOc1ccccc1NC(=O)N1CCCC(c2nc3c(nnn3Cc3ccc(C)cc3)c(=O)[nH]2)C1 (configuration not stated)
-11.6% | CCOC(=O)C(NC(=O)c1ccccc1F)(Nc1cc(C)on1)C(F)(F)F (configuration not stated)
? | CCOC(=O)c1c(NC(=O)c2ccco2)sc2c1CCCCC2
-11.3% | COc1ccccc1NC(=O)COc1cccc(-n2cnnn2)c1
? | Cn1c(NCc2ccccc2)cc(=O)n(C)c1=O
-6.7% | Cc1cc(C)c2c(CC(=O)Nc3ccc(Cl)cn3)coc2c1
7.94µM* | O=C(c1cc2ccccc2o1)N1CCCCCC1
-14.0% | COc1ccc(/C=N\NS(=O)(=O)c2ccc(Cl)cc2)cc1COc1ccccc1[N+](=O)[O-]
-5.9% | COc1ccc(OC)c(NC(=O)NC2(C(F)(F)F)Oc3ccccc3O2)c1
-13.6% | O=C(Nc1cccnc1)c1noc2c1CCCC2
-6.0% | CN(C)c1ccc(CNCCC2(O)CCOC(C)(C)C2)cc1 (configuration not stated)
? | Cc1ccc2nc(/C(C#N)=C\c3ccc(N4CCCCC4)c([N+](=O)[O-])c3)[nH]c2c1
-9.1% | Cc1ccc(NC(=O)CCNS(=O)(=O)c2cc(Br)cnc2N)cc1Cl
? | CO/N=C/NC(=O)c1cn(-c2ccc(F)cc2)c(=O)c2ccccc12
-9.4% | Cc1ccccc1OCC(O)Cn1c(N2CCN(c3ccccc3)CC2)nc2c1c(=O)[nH]c(=O)n2C (configuration not stated)
4.9% | Cc1ccc(S(=O)(=O)N2CCC(C(=O)NCCCN3CCCCCC3)CC2)cc1
-1.2% | O=C(O)CCCC(=O)Nc1ccc(N2CCCC2)cc1
-8.3% | O=c1[nH]n(-c2ccccn2)c(=O)c2ccccc12
1.1% | COc1ccc(OC)c(NS(=O)(=O)c2ccc3c(c2)n(C)c(=O)n3C)c1
-19.7% | Cc1cc2ccccc2c(=O)n1CC(=O)NCC(=O)N1CCCC(C)C1 (configuration not stated)
-3.5% | N[C@@H](Cc1ccccc1)c1nnc(SCc2ccccc2F)o1

# An excerpt of these results, as tab-separated lines.
structure	HPGD inh
Cc1cc(C)c2c(CC(=O)Nc3ccc(Cl)cn3)coc2c1	-6.7%
O=C(c1cc2ccccc2o1)N1CCCCCC1	7.94µM*
COc1ccc(/C=N\NS(=O)(=O)c2ccc(Cl)cc2)cc1COc1ccccc1[N+](=O)[O-]	-14.0%
COc1ccc(OC)c(NC(=O)NC2(C(F)(F)F)Oc3ccccc3O2)c1	-5.9%

# A portion of the library (hit frequency here may not be typical).
